D2 potentiator: Beta-Arrestin HTS for Positive Allosteric Modulators of the Human D2 Dopamine Receptor: Potentiators. DiscoveRx D2 beta-arrestin cells, luminescence, 90 min; 100% = 57 uM dopamine signal. potentiation, % (test concentration not listed). actives 0.23% (n = 360,000); active = potentiation of 50% or more; inconclusive = 30% to 50%; inactive = 30% or less;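 also: compound concentration not given in the record; tested on top of an EC20 dose of dopamine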
Target sequence (P14416 whole entry, looked up): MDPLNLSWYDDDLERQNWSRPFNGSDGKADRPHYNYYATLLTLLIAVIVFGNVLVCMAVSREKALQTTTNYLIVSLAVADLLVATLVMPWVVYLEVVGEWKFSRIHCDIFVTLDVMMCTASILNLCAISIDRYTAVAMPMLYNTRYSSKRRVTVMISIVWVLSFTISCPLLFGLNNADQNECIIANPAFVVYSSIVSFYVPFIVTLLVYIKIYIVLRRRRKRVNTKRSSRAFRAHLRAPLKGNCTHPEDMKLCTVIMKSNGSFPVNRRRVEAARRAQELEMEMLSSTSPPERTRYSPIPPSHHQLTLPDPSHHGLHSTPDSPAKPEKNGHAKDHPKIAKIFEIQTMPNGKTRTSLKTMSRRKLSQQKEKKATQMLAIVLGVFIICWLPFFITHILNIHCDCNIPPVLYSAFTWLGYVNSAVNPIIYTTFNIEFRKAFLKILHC
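PathHunter D2 cells, attached overnight at 37 deg C, received compound in DMSO plus dopamine at EC20 (50 nM final) for 90 min at 37 deg C. Beta-arrestin recruitment was read as luminescence after 1 h with detection reagent at ambient temperature.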
Six1-Eya2 inh: qHTS Assay for Inhibitors of the Six1/Eya2 Interaction. Homeobox protein SIX1 (Homo sapiens) + Protein phosphatase EYA2 (Homo sapiens), …. AlphaScreen GST-Six1/His-Eya2 binding, biochemical; active compounds read low; control for the full effect not named in the record. activity change, % (no concentration beside the values). actives 0.56% (n = 360,000). AID 651725, 2012; in the data active = activity change below about -65%; inconclusive = about -30% to -65%; inactive = above about -30%; also: % is scaled to controls: 0 for no effect and ±100 for the full control effect
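GST-Six1 + His-Eya2 (5X stock: 250/500 nM); Tris pH 8.0, 300 mM NaCl, 0.05% BSA, 0.02% Tween 20; GSH donor/Ni acceptor beads; 1 h 37 °C dark; AlphaScreen readout.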
D2 agonist: Beta-Arrestin HTS for Positive Allosteric Modulators of the Human D2 Dopamine Receptor: Agonists. AID 624465, 2012. DiscoveRx PathHunter D2 beta-arrestin, luminescence, 90 min; 100% = 57 uM dopamine signal. activation, % (no concentration beside the values). actives 0.084% (n = 360,000). D(2) dopamine receptor (Homo sapiens), P14416; in the data active = activation above about 40%; inconclusive = about 15% to 40%; inactive = below about 15%; also: compound concentration not given in the record; the text of the record calls up to 30% inactive
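DiscoveRx PathHunter D2 beta-arrestin cells (2,100/well) attached overnight, then compound-stimulated 90 min at 37 C in HBSS/10 mM HEPES/0.1% Tween-20 buffer; beta-galactosidase complementation read by luminescence after 1 h at ambient temperature. Dopamine 57 uM final (EC100) as control.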
PINK1 expr mod: A Quantitative High throughput Screen to Identify Chemical Modulators of PINK1 Expression; PINK1 immunofluorescence, high-content cytometry, 24 h; Potency, µM (doses to about 76.6 µM), for the others: at the highest dose activation (PINK1 increase), hits mostly activators; actives 0.2% (n = 410,000); AID 624263, 2012; active = well fitted activation curve with a large enough effect; inconclusive = small, poorly fitted or top-dose-only effect; inactive = flat fitted curve, though single readings scatter; cell line not stated here;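 also: potency is read from the fitted curve at half-maximal effect; % of control where 0% means no effect; nearly all actives have a fitted effect of over 65% in size; a mitochondrial uncoupler was the plate control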
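Measures PINK1 amount and localization on or inside mitochondria by immunofluorescence. Stable cells get compounds at 5 concentrations for 24 hours before fixation and staining; CCCP controls included.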
TRPML1 ag: qHTS for Agonists of the Human Mucolipin Transient Receptor Potential 1 (TRPML1). Mucolipin-1 (Homo sapiens), Q9GZU1. TRPML1-expressing cells, Ca2+ dye fluorescence, FDSS; host cell line not named in the record; reference of the full effect not given here. activation, % (concentration not given with the values). actives 0.12% (n = 410,000). AID 624414, 2012; in the data active = activation above about 50%; inconclusive = about 30% to 50%; inactive = below about 30%; also: 0% is about no effect; the text of the record puts the active cut at 80%
Target sequence (Q9GZU1 whole entry, looked up): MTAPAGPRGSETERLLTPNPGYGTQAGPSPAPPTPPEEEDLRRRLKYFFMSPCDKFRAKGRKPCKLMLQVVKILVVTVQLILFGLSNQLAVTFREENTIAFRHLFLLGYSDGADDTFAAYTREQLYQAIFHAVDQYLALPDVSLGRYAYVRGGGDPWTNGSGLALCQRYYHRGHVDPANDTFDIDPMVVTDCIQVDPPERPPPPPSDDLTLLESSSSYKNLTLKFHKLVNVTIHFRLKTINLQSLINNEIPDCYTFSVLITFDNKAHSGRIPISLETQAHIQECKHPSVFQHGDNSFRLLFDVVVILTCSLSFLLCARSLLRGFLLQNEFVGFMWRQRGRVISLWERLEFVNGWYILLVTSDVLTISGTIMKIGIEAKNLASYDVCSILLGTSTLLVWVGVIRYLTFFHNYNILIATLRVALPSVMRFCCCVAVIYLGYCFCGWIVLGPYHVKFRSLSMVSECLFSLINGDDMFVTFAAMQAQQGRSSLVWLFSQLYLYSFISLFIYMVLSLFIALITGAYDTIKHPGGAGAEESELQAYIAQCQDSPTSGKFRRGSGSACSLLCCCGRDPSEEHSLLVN
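In this qHTS format, compounds were pin-transferred onto Ca8-dye-loaded TRPML1-DL cells induced with Tet overnight, and intracellular Ca2+ fluorescence was recorded kinetically for 110 s after a 10 s baseline. A subsequent 4uM final 54-4 (EC80) addition followed by a second 110 s read served as the antagonist phase.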
TRPML1 inh: qHTS for Inhibitors of the Human Mucolipin Transient Receptor Potential 1 (TRPML1) | AID 624415, 2012 | Mucolipin-1 (Homo sapiens), Q9GZU1 | TRPML1-inducible cells, Ca2+ dye fluorescence, FDSS; active compounds read low; inhibition of EC80 agonist-evoked calcium signal | activity change, negative = inhibition, % (concentration not given with the values) | actives 0.02% (n = 390,000); in the data active means activity change below about -50%; inconclusive means about -30% to -50%; inactive means above about -30%;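 also: stimulus is agonist 54-4 at its EC80 concentration; % is scaled to controls: 0 for no effect and ±100 for the full control effect; the text of the record puts the active cut at -80%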
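Tet-induced TRPML1-DL cells loaded with Ca8 no-wash calcium dye were read kinetically on FDSS. Compound addition was followed by EC80 agonist 54-4 (4 uM final); inhibition was read over 110 s.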
The depositor's hits bear a star; ? = inconclusive; nt = no result given; & = joins results of further samples; [ ] = remark or other dose.

SMILES	D2 potentiator	Six1-Eya2 inh	D2 agonist	PINK1 expr mod	TRPML1 ag	TRPML1 inh
CCOC(=O)C1=C(C)NC(=O)NC1c1ccc(C)o1 (stereo unspecified)	-9	-1	11	0.6%	-0.4	7
COc1ccc(NS(=O)(=O)c2cccc(C(=O)N3CCC3)c2)cc1	-7	2	-3.9	-2.2%	-0.8	7
COC(=O)c1ccc(-n2nnc(-c3nc(-c4ccccc4Cl)no3)c2C)cc1	nt	nt	nt	0.9%	-0.2	13
CCNC(=O)C1CCCN(Cc2cc(-c3ccccc3)on2)CC1 (stereo unspecified)	-18	2	-4.7	0.5%	-0.4	nt
COc1ccc(C2CC3(O)CC(C#N)(C(=O)N3)C2(C#N)C#N)cc1 (stereo unspecified)	-14	6	-2.2	1.9%	-0.9	0
COc1ccc(N(C(=O)c2ccco2)C(C(=O)NC2CCCC2)c2ccncc2)cc1OC (stereo unspecified)	10	6	-2.1	1.2%	-0.6	-11
CC(C)N(C(=O)Cn1cc(S(=O)(=O)CC(=O)N2CCOCC2)c2ccccc21)C(C)C	0	-5	-2.0	3.3%	-0.1	10
COc1ccccc1C(=O)N1CCN(Cc2nc(CC3CC3)no2)CC1	0	-4	2.4	-1.2%	-0.2	0
CCCCCN=C(N)N/N=C/c1c[nH]c2ccc(OC)cc12	-18	-8	4.4	-0.8%	18	7
COc1cc(C2=NC(CO)(CO)CO2)cc(OC)c1OC	-17	0	-0.1	1.7%	-0.5	12
O=C(CNS(=O)(=O)c1ccccc1)N/N=C/c1ccc(O)cc1	-10	-3	-1.5	0.0%	0.3	-26
Oc1ccc(Cl)cc1Nc1nc2ccccc2n2cnnc12	nt	nt	nt	2.1%	-1.3	-3
CCN(CC)CCCNC(=O)CCC(=O)Nc1ccc2nc(N3CCCCC3)cc(C)c2c1	-16	0	-0.7	-0.3%	-0.6	-10
CC(Sc1nnc(COc2ccc(Cl)cc2)n1Cc1ccccc1)C(=O)O (stereo unspecified)	-3	1	0.5	0.5%	0.7	-4
CCc1ccc(S(=O)(=O)/N=C2\C=C(NS(=O)(=O)c3ccccc3)C(=O)c3ccccc32)cc1	-12	-15	6.6	-2.4%	2.4	?
CN(CC(=O)NCc1ccncc1)S(=O)(=O)c1ccc2ccccc2c1	-3	6	-1.7	0.1%	0.6	2
O=C(Cc1ccc(NC(=O)C2CCCN(C(=O)C3CCC3)C2)cc1)Nc1ccc(C(=O)N2CCOCC2)cc1 (stereo unspecified)	-1	4	-1.3	-1.7%	2.9	35
COc1ccc(CCNC(=O)CSCc2nc(-c3ccc(OC)c(OC)c3)oc2C)cc1OC	nt	nt	nt	-1.5%	0.6	11
Cc1ccc(NC(=O)Nc2ccc3nc(N4CCN(C)CC4)cc(C)c3c2)cc1F	nt	nt	nt	10%	0.4	-23
Cc1ccc(NC(=O)CSc2nc(-c3ccco3)cc(C(F)(F)F)n2)cc1	nt	nt	nt	15%	-0.5	-1
Cc1cc(C)nc(SCC(=O)n2c3c(c4ccccc42)CCCC3)n1	-20	6	-0.9	7.8%	1.2	-14
CC(C)(CNC(=O)COc1ccccc1Cc1ccccc1)N1CCOCC1	-8	-3	-5.2	6.5%	-1.7	-12
Cc1ccc(C2=Nc3ccccc3NC(c3ccncc3)=N2)cc1	nt	nt	nt	-0.9%	3.0	70
O=C1CCCC(=O)N1c1ccc(Oc2ccc(Cl)cc2)cc1	-10	-3	-2.8	-0.3%	-0.4	-3
COCCn1c(SCC(=O)Nc2cc(C)cc(C)c2)nnc1C(C)C	-5	5	0.1	0.0%	0.2	6

SMILES	D2 potentiator	Six1-Eya2 inh	D2 agonist	PINK1 expr mod	TRPML1 ag	TRPML1 inh
O=C(CCn1c(=S)oc2ccccc21)Nc1ccccc1Br	11	0	1.0	8.2%	-0.4	7
CC(Oc1ccc2c(c1)oc(=O)c1ccccc12)C(=O)NC(Cc1c[nH]c2ccc(O)cc12)C(=O)O (stereo unspecified)	-1	-16	2.6	0.8%	nt	nt
Cc1c(NC(=O)N(C)C)c(=O)n(-c2ccccc2)n1C	-16	15	0.2	2.1%	-0.8	-1
O=S1(=O)C[C@@H](N2CCN(CC3CC3)CC2)[C@H](COCc2ccccc2)N1	-9	-1	-2.7	-0.9%	0.4	nt
CC(C)(C)c1ccc(OCC(=O)NC(Cc2c[nH]c3ccccc23)C(=O)O)cc1 (stereo unspecified)	nt	nt	nt	0.5%	1.2	-6
Cc1ccc(NC(=O)C2CCCN(S(=O)(=O)c3cccc4nsnc34)C2)c(C)c1 (stereo unspecified)	nt	nt	nt	1.1%	-1.2	47
O=C(Cn1c(C(F)(F)F)nc2ccccc21)c1ccc(Br)cc1	21	2	1.4	-0.4%	1.9	48
O=C(Nc1ncc(S(=O)(=O)c2ccc([N+](=O)[O-])cc2)s1)c1ccc2ccccc2c1	73*	-2	14	14µM*	1.6	0
CCc1cc(-c2n[nH]c(C)c2-c2nc3ccccc3s2)c(O)cc1OCC(=O)NN	-10	12	-1.4	1.5%	-0.2	-9
c1ccc(-c2n[nH]c(-c3ccccn3)n2)nc1	-8&-3	-92*	0.7&2.7	0.7%[38.3 µM]	0.6&0.0	6&-6
Cc1ccc(NC(=O)Cn2c(=O)n(Cc3nc(-c4ccccc4)no3)c(=O)c3cc4c(cc32)OCO4)cc1C	nt	nt	nt	-0.4%	0.3	2
CCCC[n+]1ccn(-c2nc3c([N+](=O)[O-])cccc3n2C)c1	-69	2	-6.9	-0.5%	-0.5	48
CC[C@]1(C(=O)OC)[C@H]2C(=O)N(Cc3ccccc3)C(=O)[C@H]2[C@H]2CN=C(SCc3ccc(C(=O)OC)cc3)N21	-13	-4	1.2	2.0%	3.6	-22
CSc1nnc(-c2ccccc2)n1C	1	6	-1.4	nt	0.6	-6
COC(=O)C1=NN(c2ccccc2)C2(S1)S/C(=C\c1ccccc1)C(=O)N2c1ccccc1 (stereo unspecified)	1	0	-6.6	-1.8%	-0.3	-10
Cc1oc(/N=C/c2ccc3c(c2)OCO3)c(C#N)c1C	-8	-2	0.9	1.9%[38.3 µM]	0.0	-15
Cc1ccc(S(=O)(=O)N(CC(=O)N(C(C)C)C(C)C)C(=O)N2CCN(C)CC2)cc1	-8	0	2.8	-0.8%	-0.2	-5
CC(=O)N1CCN(CC(=O)Nc2cc([N+](=O)[O-])ccc2Cl)CC1	6	1	-1.3	0.7%	0.1	-19
Cc1ccc(OCCNC(=O)c2ccc(C)o2)cc1	-1	-3	-2.4	0.8%	1.4	1
CCN(CC)c1ccc(C(=O)OCC(=O)Nc2ncccn2)cc1	-6	1	-2.9	0.0%	-0.3	-6
COc1ccc(-c2coc3cc(OC(C)=O)ccc3c2=S)cc1	-13	-15	-8.9	18µM*	0.7	1
COc1ccc(NC(=O)c2sc3nc4c(cc3c2N)CN(Cc2ccccc2)CC4)cc1OC	nt	nt	nt	4.4%	1.0	-8
CCCCN1CC(COCc2ccccc2)Oc2cccc(Oc3cc(C)c(C)c(C)c3)c2S1(=O)=O (stereo unspecified)	-3	-3	-1.0	5.5%	0.6	-11
CCC1CN(C(=O)N2CCC(C(=O)N(C)Cc3ccccc3)CC2)c2ccccc2O1 (stereo unspecified)	nt	nt	nt	0.7%	3.0	10
COc1cc2nc(SCC(=O)Nc3cccc(C)c3)n3nc(-c4ccccc4)nc3c2cc1OC	nt	nt	nt	1.1%	-0.5	-6

Three entries already listed, sorted by the number in D2 potentiator, lowest first.
SMILES	D2 potentiator	Six1-Eya2 inh	D2 agonist	PINK1 expr mod	TRPML1 inh
Cc1oc(/N=C/c2ccc3c(c2)OCO3)c(C#N)c1C	-8	-2	0.9	1.9%[38.3 µM]	-15
CC(=O)N1CCN(CC(=O)Nc2cc([N+](=O)[O-])ccc2Cl)CC1	6	1	-1.3	0.7%	-19
O=C(CCn1c(=S)oc2ccccc21)Nc1ccccc1Br	11	0	1.0	8.2%	7

(continued)
SMILES	D2 potentiator	Six1-Eya2 inh	D2 agonist	PINK1 expr mod	TRPML1 ag	TRPML1 inh
CCOc1cc2[nH]c(=O)n(CCCCCC(=O)NC(C)CC)c(=O)c2cc1OCC (stereo unspecified)	nt	nt	nt	1.2%	-0.6	-13
CC(NC(=O)Nc1ccccc1C(F)(F)F)C1CCCO1 (stereo unspecified)	-1	-1	-2.5	2.3%[38.3 µM]	0.1	29
CC(C)n1nc(C(=O)Oc2cc(Cl)ccc2Cl)c2ccccc2c1=O	-1	3	-4.4	15%	-1.1	9
Cc1cc(-c2cc(C(=O)NCc3ccccc3)on2)nc(S(C)(=O)=O)n1	-5	10	1.8	-1.8%	-0.4	-7
Cc1c(C)c2ccc(OCC(=O)NC3CCN(Cc4ccccc4)CC3)c(C)c2oc1=O	-15	-1	-2.5	2.4%	0.4	12
CC(=C/c1ccccc1)/C=N/n1c(C)n[nH]c1=S	-22	0	10	-0.7%	nt	nt
Cc1cccc(C2Nc3ccccc3C(=O)N2c2ccc(F)cc2)n1 (stereo unspecified)	-12	-6	-1.1	-1.1%	0.7	-2
COc1ccc([N+](=O)[O-])cc1N(CC(O)CN1CCCCC1)S(=O)(=O)c1ccccc1 (stereo unspecified)	-16	-1	0.6	2.0%	1.3	-4
CC(C)C(NS(=O)(=O)c1cccs1)C(=O)NCc1ccccc1Cl (stereo unspecified)	-4	1	1.8	0.5%	0.1	0
CC(c1ccc(F)cc1)n1cc(C(=O)NCCN(C)C)nn1 (stereo unspecified)	-2	1	-2.3	-1.0%	2.2	-5
COC(=O)c1cc(Cl)c(NC(=O)/C=C/c2ccc(Cl)cc2)cc1OC	7	28	-0.7	?	5.0	-8
Cc1nc(C)c(C(=O)OCC(=O)NCc2ccccc2Cl)s1	-4	13	-1.5	3.3%	1.3	-4
COc1cc(OC)c(C2C=C(C(=O)O)Nc3ncnn32)cc1OC (stereo unspecified)	nt	nt	nt	-0.4%	-0.6	-3
Cc1ccc(C)c(N2CCN(CCCNC(=O)C3COc4ccccc4C3)CC2)c1 (stereo unspecified)	nt	nt	nt	5.7%	0.6	-14
CCN1C(=O)C(Cc2nc3ccccc3c(=O)n2C)c2ccccc21 (stereo unspecified)	-22	-16	-2.2	7.3%	0.0	7
O=C(COC(=O)C1CCN(C(=O)Nc2ccccc2)CC1)NCC(F)(F)F	2	6	-0.9	1.0%	-1.0	-4
CCOc1ccc(N2CC(C(=O)Nc3ccc(S(=O)(=O)N4CCCC4)cc3)CC2=O)cc1 (stereo unspecified)	-5	-4	-2.8	2.2%	-0.6	-1

Screening results: PubChem, National Center for Advancing Translational Sciences (NCATS)
